NOMO-1 viab – STK33 inhibitor candidate reducing NOMO-1 cell viability | 37,000 tested, 7.5% active | NOMO-1 AML viability, CellTiter-Glo luminescence, 72 h | inhibition, % (concentration not given with the values);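 active = most replicates above 80%; inconclusive = exactly half above 80%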;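 also: wells of about 30 µL received 25 nL stock; 0% = median of vehicle wells and 100% = reference inhibitor level; the first replicate is given; inactives centre near 10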
* hit, by the source's call; u = inconclusive. The list is partial, so the mix of outcomes need not match the whole.

SMILES	NOMO-1 viab
Cc1cc(Cl)cc(Cl)c1OCC(=O)Nc1cccc(NC(=O)c2ccccc2Cl)c1	29
CSc1nsc(SCC(=O)OC2CC3CCC2(C)C3(C)C)n1 (centres undefined)	u
C[C@H](CO)N1C[C@H](C)[C@H](CN(C)Cc2ccccc2)Oc2ccc(NS(=O)(=O)c3ccc(F)cc3)cc2CC1=O	52
COc1ccc(NC(=O)Nc2ccc3c(c2)CC(=O)N([C@@H](C)CO)C[C@H](C)[C@H](CN(C)S(=O)(=O)c2ccccc2)O3)cc1	4
C[C@@H]1CN([C@H](C)CO)C(=O)Cc2cc(NC(=O)Nc3ccc4c(c3)OCO4)ccc2O[C@H]1CN(C)Cc1ccc(C(F)(F)F)cc1	77
C[C@H]1CN([C@@H](C)CO)C(=O)c2cc(N(C)C)ccc2O[C@@H]1CN(C)S(=O)(=O)c1cn(C)cn1	19
C[C@H]1CN([C@@H](C)CO)C(=O)Cc2cc(NC(=O)c3ccncc3)ccc2O[C@@H]1CN(C)S(=O)(=O)c1ccc(Cl)cc1	2
COc1cccc2cc(C(=O)C3C(=O)C(=O)N(CCc4ccccc4)C3c3cccnc3)oc12 (centres undefined)	-8
COC(=O)c1c(NC(=S)Nc2c(C)nn(Cc3c(F)c(F)c(F)c(F)c3F)c2C)sc(C)c1-c1ccccc1	14
Cc1ccc(S(=O)(=O)N(C)C[C@H]2Oc3ccc(NC(=O)CCC(F)(F)F)cc3CC(=O)N([C@@H](C)CO)C[C@@H]2C)cc1	4
COc1ccc(NC(=O)Nc2ccc3c(c2)C(=O)N([C@@H](C)CO)C[C@H](C)[C@H](CN(C)C(=O)NC(C)C)O3)cc1	14
O=C(Cn1cnc2ccccc2c1=O)Nc1ccc(Br)cc1F	11
C[C@H](CO)N1C[C@H](C)[C@@H](CN(C)S(=O)(=O)c2cn(C)cn2)Oc2c(NC(=O)c3ccncc3)cccc2C1=O	13
C[C@@H]1CCCCO[C@H](CN(C)Cc2ccncc2)[C@@H](C)CN([C@H](C)CO)C(=O)c2cc(NC(=O)NC3CCCCC3)ccc2O1	20
Cc1ccc(-c2nn(C)c(=O)c3ccccc23)cc1CNC(=O)CN1C(=O)c2ccccc2C1=O	20
C[C@@H]1CN([C@H](C)CO)C(=O)c2cccc(NC(=O)c3ccc(-c4nccs4)cc3)c2O[C@@H]1CN(C)Cc1ccc(C(=O)O)cc1	9
COc1ccc(NC(=O)c2ccc3c(=O)n(Cc4ccco4)c(=S)[nH]c3c2)cc1OC	16
Cc1nn(-c2ccccc2)c(N)c1C(N)=S	10
COc1ccc(S(=O)(=O)Nc2cccc3c2O[C@@H](CN(C)S(=O)(=O)c2ccccc2)[C@@H](C)CN([C@@H](C)CO)C3=O)cc1	-19
COc1ccc(S(=O)(=O)N(C)C[C@@H]2Oc3ccc(N(C)C)cc3C(=O)N([C@@H](C)CO)C[C@@H]2C)cc1	-12
CC(Oc1ccc(C(C)(C)C)cc1)c1nc(-c2cccnc2)no1 (centres undefined)	81*
COC(=O)c1ccccc1NC(=O)Cn1c([N+](=O)[O-])cnc1C	1
O=C(CSc1nc2ccccc2[nH]1)Nc1ccc(Cl)cc1O	56
O=C(COc1ccc(Cl)cc1C1C2=C(CCCC2=O)NC2=C1C(=O)CCC2)Nc1ccc(Cl)cc1	116*
COc1ccc(OC)c(NC(=O)Cn2c(=O)oc3ccccc32)c1	12
Cc1ccc(S(=O)(=O)N(C)C[C@@H]2Oc3ccc(NC(=O)CCC(F)(F)F)cc3CC(=O)N([C@@H](C)CO)C[C@@H]2C)cc1	134*
COc1ccc(-c2nnc3c4ccccc4c(C)nn23)cc1S(=O)(=O)NCc1cccnc1	-5
COc1ccc(S(=O)(=O)Nc2ccc3c(c2)C(=O)N([C@@H](C)CO)C[C@H](C)[C@@H](CN(C)Cc2ccc(Oc4ccccc4)cc2)O3)cc1	71
C[C@H](CO)N1C[C@H](C)[C@H](CN(C)C(=O)Nc2ccc3c(c2)OCO3)Oc2ccc(NC(=O)Nc3ccccc3)cc2C1=O	0
Cc1noc(C)c1S(=O)(=O)Nc1ccc2c(c1)C(=O)N([C@@H](C)CO)C[C@H](C)[C@H](CN(C)CC1CCCCC1)O2	1
Cc1cc(C(=O)Nc2cccc3c2O[C@H](CN(C)C(=O)Nc2ccc4c(c2)OCO4)[C@@H](C)CN([C@@H](C)CO)C3=O)n(C)n1	12
COc1ccc(CN(C)C[C@@H]2Oc3ccc(NS(=O)(=O)c4ccccc4)cc3C(=O)N([C@@H](C)CO)C[C@H]2C)cc1	2
COC(=O)CN(c1cccc(C)c1)S(=O)(=O)c1ccc(Cl)c(Cl)c1	8
O=C(CC(C(=O)O)N1CCOCC1)Nc1ccccc1 (centres undefined)	8
COc1ccc(S(=O)(=O)Nc2ccc3c(c2)C(=O)N([C@H](C)CO)C[C@H](C)[C@@H](CN(C)S(=O)(=O)c2ccccc2)OCCCC[C@@H](C)O3)cc1	25
C[C@]1(OC(=O)/C=C/c2ccccc2)C[C@@H](O)[C@]2(O)C=CO[C@@H](O[C@@H]3O[C@H](CO)[C@@H](O)[C@H](O)[C@H]3O)[C@@H]21	10
C[C@H](CO)N1C[C@H](C)[C@H](CN(C)S(=O)(=O)c2cn(C)cn2)Oc2ccc(NC(=O)Nc3ccccc3)cc2CC1=O	7
O=C(NCc1cccnc1)c1cc(-c2ccccn2)nc2c(Cl)cccc12	0
COc1ccc(OCCSc2ncnc3nc[nH]c23)cc1	14
C[C@@H]1CN([C@H](C)CO)C(=O)Cc2cc(NC(=O)CCC(F)(F)F)ccc2O[C@H]1CN(C)Cc1ccc(Oc2ccccc2)cc1	94*
C[C@@H]1CN([C@H](C)CO)C(=O)Cc2cc(NC(=O)CCCCCC(=O)Nc3ccccc3N)ccc2O[C@H]1CN(C)C(=O)NC1CCCCC1	6
Cc1ccc(NS(=O)(=O)c2cc(C(=O)O)ccc2Br)cc1	21
O=C(CS(=O)(=O)c1ccccc1)Nc1ccccc1O	5
C[C@@H]1CN([C@H](C)CO)C(=O)c2cc(NC(=O)CCCCCC(=O)Nc3ccccc3N)ccc2O[C@@H]1CN(C)S(=O)(=O)c1ccccc1	11
CCCCCCCCCC/C=C\CCCCCCCc1cccc(O)c1C(=O)O	119*
CCOC(=O)CSc1ncc(-c2ccccc2)nn1	-22
COC(=O)c1ccc(OCC(O)Cn2c(C)[n+](C)c3ccccc32)cc1 (centres undefined)	16
C=C[C@@]12COC(=O)C(=C)C1[C@@H](O)[C@H](C(=C)C(=O)OC)[C@@H](OC(=O)C(=C)CO)C2 (some centres undefined)	116*
c1ccc(COc2ccc(Oc3nc(N4CCCCC4)nc(N4CCOCC4)n3)nn2)cc1	40
COC(=O)c1cc(O)cc(O)c1C(=O)c1c(O)cc(C)cc1O	3
Cc1noc(C)c1NC(=O)Nc1ccc2c(c1)CC(=O)N([C@H](C)CO)C[C@@H](C)[C@@H](CN(C)CC1CC1)O2	10
COc1ccc(S(=O)(=O)N(C)C[C@@H]2Oc3ccc(NC(=O)Cc4ccccc4)cc3CC(=O)N([C@H](C)CO)C[C@@H]2C)cc1	10
COc1ccc([N+](=O)[O-])cc1NC(=O)CCSc1ccc(C)cc1	16
O=C(O)c1ccc(NCCCO)c([N+](=O)[O-])c1	27
CCN1C2=C(C(=O)CC(C)(C)C2)C(c2ccc(OC)cc2)C2=C1CC(C)(C)CC2=O	51
COc1ccc(S(=O)(=O)N(C)C[C@H]2Oc3c(NS(=O)(=O)c4cn(C)cn4)cccc3C(=O)N([C@H](C)CO)C[C@H]2C)cc1	2
COC(=O)NCC12CC3CC(CC(C3)C1)C2	41
O=C(CSc1nc2ccccc2c(=O)n1-c1ccccc1)Nc1ccc(F)c(Cl)c1	20
COc1ccc(NC(=O)N(C)C[C@H]2Oc3c(NC(=O)c4ccncc4)cccc3C(=O)N([C@H](C)CO)C[C@@H]2C)cc1	-3
Cc1cc(C(=O)Nc2cccc3c2O[C@@H](CN(C)C)[C@@H](C)CN([C@H](C)CO)C3=O)n(C)n1	0

The list goes on:
SMILES	NOMO-1 viab
CSc1cccc(NC(=O)C(C)N(c2ccc(C)cc2)S(C)(=O)=O)c1 (centres undefined)	31
C[C@@H]1CCCCO[C@H](CN(C)CC2CCCCC2)[C@@H](C)CN([C@H](C)CO)C(=O)c2cc(NC(=O)CCC(F)(F)F)ccc2O1	12
Cc1ccc(-c2cc(C(F)F)n3ncc(C(=O)NCc4cn(C)nc4C)c3n2)cc1	34
COc1ccc(NC(=O)Nc2ccc3c(c2)CC(=O)N([C@@H](C)CO)C[C@@H](C)[C@@H](CN(C)S(=O)(=O)c2ccc(F)cc2)O3)cc1	10
C[C@H]1CN([C@@H](C)CO)C(=O)c2cc(NC(=O)Cc3ccccc3)ccc2O[C@@H]1CN(C)Cc1ccc(Cl)c(Cl)c1	68
C[C@@H]1CN([C@@H](C)CO)C(=O)c2cccc(NS(=O)(=O)c3ccc(F)cc3)c2O[C@@H]1CN(C)Cc1ccc(Oc2ccccc2)cc1	37
COc1ccc(OC)c(C(C)NC(=O)Nc2cccc([N+](=O)[O-])c2)c1 (centres undefined)	2
COc1ccc(-c2nn(C)c(=O)c3ccccc23)cc1CNC(=O)CN1CCOCC1	-4
CCN1CCN(C(=O)C2CCCN2S(=O)(=O)c2cccc3nsnc23)CC1 (centres undefined)	12
COC(=O)c1ccc(NC(=O)CSc2n[nH]c(-c3ccncc3)n2)cc1	-27
COc1ccc(S(=O)(=O)N(C)C[C@H]2Oc3ccc(NS(=O)(=O)c4cn(C)cn4)cc3CC(=O)N([C@H](C)CO)C[C@H]2C)cc1	21
C[C@H](CO)N1C[C@H](C)[C@H](CN(C)S(=O)(=O)c2ccccc2)Oc2ccc(NC(=O)NC3CCCCC3)cc2CC1=O	-4
Cc1cc(Cl)c(S(=O)(=O)N2CCc3ccccc32)cc1OCC(N)=O	28
C[C@H](CO)N1C[C@H](C)[C@@H](CN(C)S(C)(=O)=O)Oc2ccc(NC(=O)Cc3cn(C)c4ccccc34)cc2C1=O	8
O=C(CSc1nc(Nc2ccccc2)nc(N2CCOCC2)n1)N1CCc2ccccc21	20
COc1ccc(C(=O)NC(CC(=O)O)c2ccc(Cl)cc2)cc1 (centres undefined)	-8
O=C1c2ccccc2C(O)(c2ncc[nH]2)N1CCc1ccccc1 (centres undefined)	-15
C[C@H]1CN([C@@H](C)CO)C(=O)c2cccc(N(C)C)c2O[C@H]1CN(C)S(C)(=O)=O	5
C[C@H](CO)N1C[C@H](C)[C@H](CN(C)S(=O)(=O)c2ccc(Cl)cc2)Oc2ccc(NC(=O)CCCCCC(=O)Nc3ccccc3N)cc2CC1=O	75
C[C@@H]1CN([C@@H](C)CO)C(=O)c2cccc(NC(=O)Nc3cccc4ccccc34)c2O[C@@H]1CN(C)Cc1ccc(C(F)(F)F)cc1	27
CC(C)(C)N1Sc2ccccc2NC1=S	9
C[C@H](CO)N1C[C@H](C)[C@@H](CN(C)C)Oc2ccc(NC(=O)Nc3ccc(F)cc3)cc2C1=O	-10
C[C@H](CO)N1C[C@H](C)[C@H](CN(C)C)Oc2c(NC(=O)c3cnccn3)cccc2C1=O	-14
COC(=O)C1c2c(oc3cc(CO)cc(O)c3c2=O)C=CC1O (centres undefined)	107*
COc1ccc(NC(=O)Nc2ccc3c(c2)CC(=O)N([C@H](C)CO)C[C@@H](C)[C@@H](CN(C)C(=O)Nc2ccccc2)O3)cc1	3
O=c1[nH]nc(SCc2ccc(Cl)cc2)n1C1CC2C=CC1C2 (centres undefined)	68
COC(=O)c1cc(C)sc1NC(=O)COc1ccccc1	-20
COc1ccc(NC(=O)Nc2ccc3c(c2)CC(=O)N([C@@H](C)CO)C[C@H](C)[C@H](CN(C)S(=O)(=O)c2cccs2)O3)cc1	7
C[C@@H]1CN([C@H](C)CO)C(=O)c2cccc(NC(=O)NC3CCCCC3)c2O[C@H]1CN(C)Cc1ccc(C(=O)O)cc1	14
C[C@H](CO)N1C[C@H](C)[C@H](CN(C)S(=O)(=O)c2ccc(Cl)cc2)Oc2ccc(NS(=O)(=O)c3cccs3)cc2C1=O	6
C[C@@H]1CN([C@H](C)CO)C(=O)c2cccc(NC(=O)c3ccncc3)c2O[C@H]1CN(C)Cc1ccc2c(c1)OCO2	28
C[C@@H]1CN([C@H](C)CO)C(=O)c2cccc(NC(=O)Nc3ccc(C(F)(F)F)cc3)c2O[C@H]1CN(C)S(C)(=O)=O	65
